Bioassay records (PubChem BioAssay)
VDR inh = inhibitors of human vitamin D receptor. VDR-SRC2-3 peptide fluorescence polarization, 2 h. Potency, µM, without a hit: max response, negative = inhibition, most hits filed as inhibitors. actives 0.93% (n = 400,000). AID 504847; active = well fitted inhibition curve with a large enough effect; inconclusive = small, poorly fitted or top-dose-only effect, or another doubt; inactive = no such curve, though single readings can be large or run the other way; also: series mostly up to about 120 µM
Target sequence (P11473 whole entry, looked up): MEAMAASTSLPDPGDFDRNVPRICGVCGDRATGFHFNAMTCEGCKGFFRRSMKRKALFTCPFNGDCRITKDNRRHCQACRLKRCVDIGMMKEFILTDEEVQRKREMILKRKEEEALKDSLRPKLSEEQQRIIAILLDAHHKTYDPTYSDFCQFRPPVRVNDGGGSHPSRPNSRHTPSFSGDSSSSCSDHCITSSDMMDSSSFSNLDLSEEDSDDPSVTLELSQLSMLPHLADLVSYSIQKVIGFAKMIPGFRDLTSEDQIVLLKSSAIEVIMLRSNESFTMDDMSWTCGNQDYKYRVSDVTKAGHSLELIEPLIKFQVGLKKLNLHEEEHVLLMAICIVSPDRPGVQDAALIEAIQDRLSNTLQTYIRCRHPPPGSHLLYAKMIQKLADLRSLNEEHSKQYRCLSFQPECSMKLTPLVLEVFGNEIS
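Measured by FP: displacement of SRC2-3 coactivator peptide from VDR by library compounds, following a two-hour ambient incubation.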
An asterisk follows results filed as active; u = inconclusive; & = joins results of further samples. % is scaled to controls: 0 for no effect and ±100 for the full control effect; potency is read from the fitted curve at half-maximal effect.

SMILES	VDR inh
Cc1cccn2c(=O)c3cc(C(=O)NCc4ccco4)c(=N)n(C4CCCC4)c3nc12	6.8%
Cc1ccc(NC(=O)CSc2nc3nccnc3c(=O)n2CCc2c[nH]c3ccccc23)c(C)c1	1.1%
CCOc1ccccc1CNC(=O)C1CCN(C(=O)N2CCOc3ccc(Cl)cc32)CC1	-13.9%
Cc1ccc(S(=O)(=O)N2CCCCC2)cc1C(=O)Nc1cccnc1	-9.4%
Cc1ccc(OCCNS(=O)(=O)c2ccc(N3CCCC3=O)cc2)cc1	0.4%
CCOC(=O)N1CCN(C(=O)/C(=C/c2ccc(Br)cc2)NC(=O)c2ccc(OC)cc2)CC1	11.9%
Cc1c(OCC(=O)NC(Cc2c[nH]c3ccc(O)cc23)C(=O)O)ccc2c3c(c(=O)oc12)CCC3 (centres undefined)	-7.4%
O=C(COC(=O)CNC(=O)c1ccc(Cl)cc1Cl)NC(=O)NCc1ccccc1	-5.5%
O=C(CNC(=O)c1ccccc1Br)Nc1cccc(S(=O)(=O)Nc2ccccc2Cl)c1	-6.9%
Cc1cc(C(=O)NNc2ccc(Cl)cc2)no1	-2.7%
COc1ccccc1C(C)N(C)Cc1nc(COc2ccccc2)no1 (centres undefined)	6.5%
Cc1cc(C)nc(N(C#N)Cc2ccc([N+](=O)[O-])cc2)n1	-1.0%
COc1ccc(N(C)C(=O)c2cc(S(=O)(=O)N3CCc4ccccc43)cn2C)c(OC)c1	13.1%
O=C(NC1CCCC1)c1cc2nc(-c3ccccc3)cc(-c3ccccc3)n2n1	-9.6%
CC12CCC(C/C1=N/NC(=O)Nc1ccccc1)C2(C)C (centres undefined)	1.0%
COc1cccc(NC(=O)C2C3C=CC(C3)C2C(=O)O)c1 (centres undefined)	-17.2%
O=S(=O)(c1ccccc1)N1CCN(C/C=C/c2ccccc2)CC1	-8.6%
COc1ccc(OC)c(N=CC2=C(O)CC(C)(C)CC2=O)c1	15.0%
COc1ccc(-c2nnc(Nc3ccc(OC)c(C(=O)N4CCCCC4)c3)c3ccccc23)cc1	-4.9%
COc1ccc(OC)c(CNC(=O)c2ccc3c(c2)c(C)c(C)n3Cc2ccc(Cl)cc2)c1	3.3%
COc1cc(OC)c2c(c1)OC(c1ccc(OC)c(OC)c1)C(O)C2=O (centres undefined)	6.8%
C=CCN(c1nc(C)c(Br)c(OC)n1)S(=O)(=O)c1ccc(C)cc1	13.8%
O=C1CCCC/C1=N\Nc1ccc(OCc2ccccc2)cc1	-0.3%
Cc1ccc(C2(COC(=O)C(C)C)CO2)c(OC(=O)C(C)C)c1 (centres undefined)	-34.7%
COc1ccc(NS(=O)(=O)c2ccc(OC)c3ccccc23)cn1	-28.9%
NNC(=O)c1ncoc1-c1ccc(Cl)cc1	-13.2%
Cc1ccc(S(=O)(=O)N2CCN(C(=O)Cn3c(=O)oc4ccccc43)CC2)cc1	0.6%
CC(C)[C@H](NC(=O)c1ccccc1)C(=O)OCC(=O)Nc1ccc2c(c1)OCCO2	5.9%
COc1cccc(CN(C)C(=O)CSC(C)C(=O)Nc2cc(C)on2)c1OC (centres undefined)	5.7%
COC(=O)c1ccccc1Nc1cc(C)nc2nc(C)nn12	u
COC(=O)c1sccc1NC(=O)CC1C(=O)NCCN1C(=O)c1ccccc1 (centres undefined)	-5.0%
CC1(C)CN(c2ccccc2)N(C(=O)c2ccc(C#N)cc2)C1=O	3.9%
CCc1cccc(NC(=O)Cc2ccc(OC)c(OC)c2)c1	-4.0%
O=C(COc1cccc(Oc2ccccc2)c1)Nc1ncccn1	7.4%
COc1cc(C(C)=O)ccc1OCC(O)CNCC1(N2CCCCC2)CCCCC1 (centres undefined)	1.8%
COc1cccc(CNC(=O)CCc2nc3cc(S(=O)(=O)N4CCOCC4)ccc3n2C)c1	14.7%
Cc1cccc(NC(=O)c2ccc(NC(C)c3ccccc3)c([N+](=O)[O-])c2)n1 (centres undefined)	-24.7%
O=c1c2ccccc2nc(CSc2ncnc3nc[nH]c23)n1-c1cccc(C(F)(F)F)c1	0.8%
Cc1ccc(S(=O)(=O)CCC(=O)OCC(=O)N2CCN(c3ccccc3)CC2)cc1	6.5%
O=C(NCCc1c[nH]c2ccccc12)c1cnc2sccn2c1=O	8.8%
COc1ccc(-c2cc(C(=O)Nc3cccc(Cl)c3)no2)cc1	5.8%
COC(=O)c1ccccc1NS(=O)(=O)c1ccc2c(c1)oc(=O)n2C	-10.1%
COc1ccc(C2c3c(-c4ccccc4O)n[nH]c3C(=O)N2CCc2ccc(OC)c(OC)c2)cc1 (centres undefined)	11.5%
O=C(COc1ccc(S(=O)(=O)N2CCOCC2)cc1)Nc1ccc2c(c1)OCCO2	-6.0%
CC(C)CCNCC(=O)NC(c1ccccc1)c1ccccc1	-23.3%
C#CCOCCOCCOCCNc1nc(OC)nc(N2CCN(C(=O)[C@H](CCC(=O)O)n3cc(C(N)CO)nn3)CC2)n1 (some centres undefined)	5.6%
CCCCn1c(=O)c(F)cn(Cc2ccc(OC)c([N+](=O)[O-])c2)c1=O	0.8%
COc1cc(/C=C(/C#N)c2ccc(F)cc2)ccc1OCc1ccc(C(=O)O)o1	-25.2%
CC(=O)N1CCOCCOCCOCC1	-5.2%
Cc1c(CC(=O)N2CCN(C(=O)C3COc4ccccc4O3)CC2)c(=O)oc2cc(O)ccc12 (centres undefined)	2.3%
Fc1ccc(SCCc2ccncc2)cc1	u
N#CCCn1cc(C(=O)Nc2ccccn2)c(-c2ccccc2)n1	-4.6%
Cc1ccc(S(=O)(=O)N(CC(=O)Nc2cccc(C)c2C)C(=O)N2CCN(C)CC2)cc1	-9.4%
CCOC(=O)Cn1cc(C(=O)c2cccs2)c2ccccc21	0.3%
O=P(Cc1ccccn1)(c1ccccc1)c1ccccc1	9.5%
O=C(NCC1CCCO1)c1ccc2c(c1)N(Cc1ccccc1)CCS2 (centres undefined)	1.8%
CC1CCc2nc(NC(=O)C3CC3)sc2C1 (centres undefined)	2.6%
CC(CCc1ccccc1)NC(=O)c1cccc(F)c1 (centres undefined)	-10.7%
CCn1c(O)c(N=NC(=O)CNC(=O)c2ccco2)c2ccccc21	-13.7%
O=S(=O)(Nc1cccnc1)c1cccs1	1.0%

Sorted by value in VDR inh (high to low): some entries from above.
SMILES	VDR inh
O=P(Cc1ccccn1)(c1ccccc1)c1ccccc1	9.5%
Cc1c(CC(=O)N2CCN(C(=O)C3COc4ccccc4O3)CC2)c(=O)oc2cc(O)ccc12 (centres undefined)	2.3%
O=S(=O)(Nc1cccnc1)c1cccs1	1.0%
N#CCCn1cc(C(=O)Nc2ccccn2)c(-c2ccccc2)n1	-4.6%
Cc1ccc(S(=O)(=O)N(CC(=O)Nc2cccc(C)c2C)C(=O)N2CCN(C)CC2)cc1	-9.4%
CC(CCc1ccccc1)NC(=O)c1cccc(F)c1 (centres undefined)	-10.7%
CCn1c(O)c(N=NC(=O)CNC(=O)c2ccco2)c2ccccc21	-13.7%

Next results
SMILES	VDR inh
CCn1cc(C(=O)Nc2ccc(C)c([N+](=O)[O-])c2)cn1	-5.1%
Cc1nc(CNS(=O)(=O)c2ccc(Oc3ccccc3)cc2)cs1	4.0%
COc1cc(C)ccc1OCCOCCOc1ccccc1Br	-10.5%
Cc1cc(OCC(=O)NC(C)C)ccc1Cl	-3.6%
CCOC(=O)C(C)Sc1ncnc2c1c(-c1ccccc1)cn2-c1ccc(OC)cc1 (centres undefined)	-12.2%
Cc1ccc(S(=O)(=O)NC2c3cccc4cccc(c34)C2Sc2nc(C)cc(C)n2)cc1 (centres undefined)	-16.1%
Cc1cc(C)cc(NC(=O)/C=C/c2ccc([N+](=O)[O-])s2)c1	-7.3%
CC(=O)c1ccc(S(=O)(=O)Nc2ccc(C(=O)NCC(c3cccs3)N3CCOCC3)cc2)cc1 (centres undefined)	4.0%
CCCCOc1cc(CC2CNC(=O)N2)ccc1OC (centres undefined)	2.3%&-21.7%
NCC12CC3CC(C1)CC(CN)(C3)C2	-8.1%
NS(=O)(=O)c1ccc(NC(=O)COC(=O)COc2ccc(Cl)cc2)cc1	-9.5%
O=C(c1ccc2c(=O)n(CCc3ccccc3)c(=O)[nH]c2c1)N1CCN(c2ccc(Cl)cc2)CC1	-10.2%
O=C(NCCN1CCCCC1)Nc1cccc(F)c1	-9.4%
CCCOc1ccc(C(=O)N2CCCC2C(=O)O)cc1 (centres undefined)	-7.5%
N=c1sccn1CC(=O)Nc1ccc([N+](=O)[O-])cc1Cl	-8.0%
COc1ccc(NC(=O)c2cccc3cccnc23)cc1S(N)(=O)=O	7.3%
O=C(CCCCCN1C(=O)c2cccc3cccc(c23)C1=O)NCc1ccco1	-12.2%
C#CCN1C(=O)C(O)(CC(=O)c2ccc(OC)c(OC)c2)c2ccccc21 (centres undefined)	-4.7%
Cc1ccc(/C=N/NC(=O)CC2N=C(Cc3ccccc3)NNC2=O)cc1 (centres undefined)	u
CN1C2CCC1CC(NC(=O)CSCc1ccc(Cl)cc1Cl)C2 (centres undefined)	-22.3%
O=C(Nc1nccs1)C1CCCCN1S(=O)(=O)c1ccccc1 (centres undefined)	15.9%
Cn1c(=O)c2c(nc(SCC(=O)c3ccc(F)cc3)n2C)n(C)c1=O	-0.9%
COc1ccc(CNc2cc(-c3ccccc3Cl)ncn2)c(OC)c1	-9.5%
COc1ccc(CNC2CC(C)N(C)CC2C)cc1OC (centres undefined)	6.0%
NCC(=O)c1cccc2ccc[n+]([O-])c12	-8.2%
O=C(Nc1cc(S(=O)(=O)N2CCCC2)ccc1Cl)c1ccncc1	-8.5%
CN(C)CCc1c[nH]c2ccc(CS(=O)(=O)N3CCCC3)cc12	7.3%
COc1ccccc1CNc1ccnc(-c2ccc(C(=O)N(C)C)cc2)n1	u
O=C(c1ccco1)N1CCN(S(=O)(=O)c2cccc([N+](=O)[O-])c2)CC1	16.8%
O=C(NCC1CCCO1)C1CC(=O)N(C2CCCCCC2)C1 (centres undefined)	-4.4%
Cc1ccc(C)c(NC(=O)CCc2nnc3ccc(NCc4ccco4)nn23)c1	7.7%
Cc1cc(C(=O)CSc2nnc(Cc3ccccc3)o2)c(C)n1Cc1ccc2c(c1)OCO2	-6.3%
Cc1ccc(S(=O)(=O)NCc2ccccc2)cc1C(=O)NCC(C)(C)N1CCOCC1	12.6%
CCCn1c(SCC(=O)N2CCOCC2)nnc1-c1ccncc1	1.7%
COc1ccc(CNS(=O)(=O)c2ccc3c(c2)N(C(C)=O)CC(C)S3)cc1 (centres undefined)	-16.9%
COc1ccc2c(c1)CC(C(=O)Nc1c(C)cc(C)cc1C)CO2 (centres undefined)	-5.5%
COCCNc1nc(-c2ccccc2CN(C)C)nc2ccccc12	-3.7%
COc1ccccc1Cn1c(CNS(=O)(=O)c2c(C)cc(C)cc2C)nc2cccnc21	7.3%
COc1ccc(N(CC(=O)N2c3ccccc3CC2C)S(=O)(=O)c2c(C)nn(C)c2C)cc1 (centres undefined)	10.1%
Cn1cccc1-c1cc(C(=O)N/N=C/c2ccccc2Cl)[nH]n1	-15.8%
CN1CCN(c2nnc(-c3cccs3)c3ccccc23)CC1	-3.7%
CCOC(=O)c1ccc(NC(=O)CN2C(=O)CN(C(C)=O)C2=S)cc1	14.3%
COc1cccc(CNn2c(-c3cccc(C)c3)nc3ccccc3c2=O)c1O	3.4%
COC(=O)[C@H](Cc1c[nH]c2ccccc12)NC(=O)NCc1ccc(OC)cc1	12.8%
Cc1cc(C)c2oc(-c3ccc(Cl)c(NC(=O)c4ccc(C#N)cc4F)c3)nc2c1	3.6%
COc1ccc(OCC(O)CN(C2CCCCC2)C2CCCCC2)cc1 (centres undefined)	2.8%
O=C(CSc1nc(-c2ccco2)cc(C(F)(F)F)n1)NCCc1ccccc1	-4.2%
NC1=C(Br)C(=O)c2ccccc2C1=O	-3.3%

Among those listed so far, 2 have a CF3 group:
SMILES	VDR inh
O=c1c2ccccc2nc(CSc2ncnc3nc[nH]c23)n1-c1cccc(C(F)(F)F)c1	0.8%
O=C(CSc1nc(-c2ccco2)cc(C(F)(F)F)n1)NCCc1ccccc1	-4.2%

Additional compounds
SMILES	VDR inh
CC(=O)Nc1ccc(S(=O)(=O)NCCc2csc3nc(-c4ccc(Cl)cc4)nn23)cc1	5.0%
CCOC(=O)C1(Cc2cccc(OC)c2)CCCN(C(=O)CCSC)C1 (centres undefined)	15.9%
O=C(NNc1c2ccccc2nc2ccccc12)c1ccc(O)cc1O	8.3%
CCCCN(CC)CCCNC(=O)c1cn(CC)c2ccc(S(=O)(=O)N3CCc4ccccc4C3)cc2c1=O	-9.2%&12.1%
Cc1ccc(C)c(OCC(=O)Nc2ccc(N3CCOCC3)cc2)c1	13.1%
O=C(c1cccs1)N1CCN(C(=O)N2CCOCC2)CC1	0.3%
CC(NC(=O)Nc1ccc(F)cc1)C(c1cccs1)N1CCCC1 (centres undefined)	-7.7%
Cc1ccc2oc(C(=O)NCC(c3ccco3)N3CCCC3)c(C)c2c1 (centres undefined)	-1.9%
COc1ccc(/C=C2\SC(=S)N(CCC(=O)N(CCO)Cc3ccccc3)C2=O)cc1OC	-8.7%
Cc1cc(Cl)ccc1NC(=S)NCC(O)c1ccccc1 (centres undefined)	-11.8%
CCCCN(CC)CCCNC(=O)C1c2ccccc2C(=O)N(C)C1c1cn(C)c2ccccc12 (centres undefined)	-6.2%
N#CN=c1snc(-c2ccccc2)n1-c1ccc(Cl)cc1	-18.4%
COCC(C)NS(=O)(=O)c1ccc(C(=O)NCCCn2ccc3ccccc32)cc1 (centres undefined)	3.3%
CS(=O)(=O)Nc1ccc(C(=O)N2CCN(c3ccccc3)CC2)cc1	14.2%
Cc1ccc(C(=O)N/N=C\c2cccnc2)s1	-2.1%
CCOc1ccc(S(=O)(=O)NCCC(=O)N2CCCC(C)C2)cc1 (centres undefined)	-20.7%
COc1ccc(C(=O)NCc2ccc3c(c2)CCN3C(C)=O)cc1OC	-1.7%
CC(/C=C/c1ccccc1)=N\NC(=O)Cn1cncn1	10.2%
O=C(COC(=O)CNC(=O)c1ccccc1)Nc1ccc(S(=O)(=O)N2CCOCC2)cc1	-0.9%

Taken from above:
Under VDR inh, O=C(COC(=O)CNC(=O)c1ccccc1)Nc1ccc(S(=O)(=O)N2CCOCC2)cc1 is entered as -0.9%
Under VDR inh, CCOc1ccc(S(=O)(=O)NCCC(=O)N2CCCC(C)C2)cc1 (centres undefined) is entered as -20.7%

An excerpt; rates above refer to the full screens.
